Bioassay records as filed in PubChem BioAssay.
CtBP-E1A inh – qHTS Assay for Inhibitors of the CtBP/E1A Interaction; AlphaScreen GST-E1A/His-CtBP binding, 1536-well; stronger effect = lower value; control for the full effect not named in the record; activity change, % (concentration not given with the values); actives 0.49% (n = 340,000); in the data active means activity change below about -65%; inconclusive means about -30% to -65%; inactive means above about -30%; further: on the % scale 0 is the no-effect control and ±100 the full control effect
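Steps: dispense buffer (Tris pH 8.0, NaCl 300 mM, TCEP 1 mM, BSA, Tween 20); add 5X protein mix (GST-E1A, His-CtBP, 125 nM each); pin 23 nL compound; 2 h at 37 °C, dark; add 5X beads (50 ug/mL); 1 h; read.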
D2 ag – Beta-Arrestin HTS for Positive Allosteric Modulators of the Human D2 Dopamine Receptor: Agonists; activation, % (test concentration not listed); DiscoveRx PathHunter D2 beta-arrestin, luminescence, 90 min; 100% = 57 uM dopamine signal; AID 624465, 2012; actives 0.084% (n = 360,000); in the data active = activation above about 40%; inconclusive = about 15% to 40%; inactive = below about 15%; further: compound concentration not given in the record; the text of the record calls up to 30% inactive
Target sequence (P14416 whole entry, looked up): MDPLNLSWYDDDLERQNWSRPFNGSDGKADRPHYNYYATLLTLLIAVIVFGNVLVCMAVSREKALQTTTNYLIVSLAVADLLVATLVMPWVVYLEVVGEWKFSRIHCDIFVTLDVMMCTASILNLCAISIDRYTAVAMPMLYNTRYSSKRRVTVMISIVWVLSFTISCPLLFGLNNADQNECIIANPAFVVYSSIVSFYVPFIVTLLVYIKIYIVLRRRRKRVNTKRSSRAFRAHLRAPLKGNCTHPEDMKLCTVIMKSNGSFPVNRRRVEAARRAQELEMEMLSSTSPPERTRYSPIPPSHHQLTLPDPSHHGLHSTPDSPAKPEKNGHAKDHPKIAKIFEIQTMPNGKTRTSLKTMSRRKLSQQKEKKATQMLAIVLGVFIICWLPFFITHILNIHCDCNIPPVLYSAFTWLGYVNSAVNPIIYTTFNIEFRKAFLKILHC
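Agonist mode: compounds alone added to overnight-plated D2 PathHunter cells for 90 min at 37 C, with 57 uM final dopamine (EC100) defining full response. Beta-arrestin recruitment detected by chemiluminescent reagent, read after 1 h at ambient temperature.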
Six1-Eya2 inh – qHTS Assay for Inhibitors of the Six1/Eya2 Interaction | Homeobox protein SIX1 (Homo sapiens) + Protein phosphatase EYA2 (Homo sapiens), … | AlphaScreen GST-Six1/His-Eya2 binding, biochemical; stronger effect = lower value; control for the full effect not named in the record | activity change, % (no concentration beside the values) | actives 0.56% (n = 360,000) | AID 651725, 2012; in the data active = activity change below about -65%; inconclusive = about -30% to -65%; inactive = above about -30%; further: on the % scale 0 is the no-effect control and ±100 the full control effect; compound concentration not given in the record
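Six1/Eya2 binding was read as AlphaScreen signal after compounds were pinned into GST-Six1 plus His-tagged Eya2 (5X stock 250/500 nM) in pH 8.0 Tris/NaCl/TCEP buffer, beads added, then incubated 1 h, 37 C, dark.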
gsp antag – qHTS for Antagonists of gsp, the Etiologic Mutation Responsible for Fibrous Dysplasia/McCune-Albright Syndrome: qHTS. AID 624288, 2012. actives 0.4% (n = 340,000). Potency, µM (titrated, usually from 76.9 µM), inactives show at the top dose activity change, negative = inhibition, most hits filed as inhibitors. gsp-mutant cells, cAMP HTRF, 30 min; control for the full effect not named in the record; active = falling curve of any shape with a large fitted effect; inconclusive = falling curve, mostly with a smaller effect; inactive = flat or rising curve; cell line not stated here;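 further: intracellular cAMP measured with PDE inhibitor Ro 20-1724 present during compound exposure; potency means the concentration at half of the fitted maximal effect; on the % scale 0 is the no-effect control and ±100 the full control effect; nearly all actives have a fitted effect of over 65% in size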
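HTRF cAMP read-out (cAMP-d2 plus anti-cAMP antibody-K in lysis buffer, 30 min RT). Before lysis, cells are exposed to compounds with […] for 30 min at 37C in DPBS containing Ca/Mg, BSA and Tween 20.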
D2 potentiator – Beta-Arrestin HTS for Positive Allosteric Modulators of the Human D2 Dopamine Receptor: Potentiators. potentiation, % (concentration not given with the values). DiscoveRx D2 beta-arrestin cells, luminescence, 90 min; 100% = 57 uM dopamine signal. AID 624464, 2012. actives 0.23% (n = 360,000); active = potentiation of 50% or more; inconclusive = 30% to 50%; inactive = 30% or less;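 further: compound concentration not given in the record; tested on top of an EC20 dose of dopamine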
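PathHunter D2 cells, attached overnight at 37 deg C, received compound in DMSO plus dopamine at EC20 (50 nM final) for 90 min at 37 deg C. Beta-arrestin recruitment was read as luminescence after 1 h with detection reagent at ambient temperature.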
gsp agonist – qHTS for Agonist of gsp, the Etiologic Mutation Responsible for Fibrous Dysplasia/McCune-Albright Syndrome: qHTS; gsp mutant cells, cAMP HTRF, 30 min; control for the full effect not named in the record; Potency, µM (series often up to 76.9 µM), for the others: top-dose activation (cAMP increase), hits mostly activators; actives 0.13% (n = 340,000); AID 624287, 2012; active = well fitted activation curve with a large enough effect; inconclusive = small, poorly fitted or top-dose-only effect, or another doubt; inactive = no such curve, though single readings can be large or run the other way; cell line not stated here;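 further: phosphodiesterase inhibitor Ro 20-1724 added with compounds to block cAMP breakdown; potency means the concentration at half of the fitted maximal effect; nearly all actives have a fitted effect of over 60% in size; about a fifth of the inactives were tested at one dose only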
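Cells in DMEM/10% FBS with G418 were pretreated with compounds in DMSO plus […] (300 uM stock) for 30 min at 37C. cAMP was measured by HTRF (cAMP-d2 plus anti-cAMP antibody-K) after 30 min at room temperature.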
Starred values were filed as active, the others as inactive; u = inconclusive; x = not tested or not shown; & = joins results of further samples; [ ] = dose if it differs, or a comment.

gsp antag,Structure,gsp agonist,Six1-Eya2 inh,CtBP-E1A inh,D2 potentiator,D2 ag
3%,O=C(NCc1ccccn1)c1ccc2c(=O)n3nc(Nc4ccccc4)sc3nc2c1,u,-12,-19,-9,-2.2
-3%,COc1cc(C(=O)OCC(=O)NCCC2=CCCCC2)ccc1OCC(C)C,-3%,4,0,-11,-1.9
-19%,Cc1ccc(OCC(=O)c2ccc(Cl)s2)c([N+](=O)[O-])n1,13%[15.4 µM],-15,-5,-3,8.7
-1%,COc1ccc(NS(=O)(=O)c2ccc3oc(=O)ccc3c2)cc1,-25%,-5,14,1,-0.1
9%,Cn1cnnc1SCC(=O)c1c(N)n(Cc2ccccc2)c(=O)n(C)c1=O,24%[15.4 µM],10,2,-4,-4.5
-5%,COc1ccc(NC(=O)CSc2nnc(-c3ccco3)c(-c3ccco3)n2)cc1OC,-30%[15.4 µM],u,u,14,2.1
-5%,C=CCOc1ccc(/C=N/NC(=O)CC(=O)NC2CCCCC2)cc1,u,0,0,-6,-3.7
-1%,Cc1c(N=CN2CCOCC2)c(=O)n(C)c(=O)n1C,-66%,7,10,-1,-2.6

Random excerpt: 5 entries already listed, in no set order.
gsp antag,Structure,gsp agonist,Six1-Eya2 inh,CtBP-E1A inh,D2 potentiator,D2 ag
-3%,COc1cc(C(=O)OCC(=O)NCCC2=CCCCC2)ccc1OCC(C)C,-3%,4,0,-11,-1.9
-1%,COc1ccc(NS(=O)(=O)c2ccc3oc(=O)ccc3c2)cc1,-25%,-5,14,1,-0.1
-5%,COc1ccc(NC(=O)CSc2nnc(-c3ccco3)c(-c3ccco3)n2)cc1OC,-30%[15.4 µM],u,u,14,2.1
9%,Cn1cnnc1SCC(=O)c1c(N)n(Cc2ccccc2)c(=O)n(C)c1=O,24%[15.4 µM],10,2,-4,-4.5
-1%,Cc1c(N=CN2CCOCC2)c(=O)n(C)c(=O)n1C,-66%,7,10,-1,-2.6

Continuation.
gsp antag,Structure,gsp agonist,Six1-Eya2 inh,CtBP-E1A inh,D2 potentiator,D2 ag
-1%,CC(=C/C(=O)O)/C(=C/c1ccccc1)C(=O)O,-10%,11,-3,-1,-0.6
-4%,COc1ccccc1NS(=O)(=O)c1cccc(C(=O)NCC(c2ccc(F)cc2)N2CCOCC2)c1 (stereo not given),-7%,3,1,-6,-2.6
-9%,COc1ccc(N=C2SC(CC(=O)Nc3ccccc3)C(=O)N2Cc2ccccn2)cc1 (stereo not given),-41%[inhibitor],1,1,-2,1.0
0%,O=c1[nH]c(N/N=C/c2cc3c(cc2[N+](=O)[O-])OCO3)nc2ccccc12,u,4,x,-15,-4.6
6%,CCn1c(SCC(=O)NCc2ccco2)nc2c(c1=O)SC(C)C2 (stereo not given),u,4,0,1,4.9
-18%,COc1ccc(CCN(C)S(=O)(=O)c2ccc(Cl)nc2)cc1OC,u,9,1,-4,-1.9
x,CC(O)(c1ccc(F)c(F)c1)c1nc(-c2ccc(Cl)cc2)cs1 (stereo not given),x,5,14,-3,11
-22%,CCN(CC)S(=O)(=O)c1cc(NC(=O)c2ccccc2OCc2c(C)noc2C)ccc1C,-11%,-4,4,1,1.1
6%,COc1ccc(C(=O)O)cc1NC(=S)NC(=O)C(c1ccccc1)c1ccccc1,-27%,-12,-1,-27,-3.8
-19%,CC(C(=O)NC1CCS(=O)(=O)C1)N1C(=O)/C(=C/c2ccc(Cl)cc2)SC1=S (stereo not given),-33%,-8,x,-8,-1.7
2%,CC(=O)Nc1ccc(Oc2ccc(S(=O)(=O)N3CCCC3)cn2)cc1,16%,11,x,-7,-4.4
-7%,Fc1ccc(CNC(=S)NC2CCCC2)cc1,-33%[15.4 µM],16,0,-6,2.0
x,COc1ccc(C2NC(=O)C(C#N)=C(S)N2c2cccc(C)c2)cc1OC (stereo not given),24%[15.4 µM],-4,-7,-24,-1.2
-19%,CCCN(C(=O)CSc1ncnc2sccc12)c1c(N)n(Cc2ccccc2)c(=O)[nH]c1=O,u,0,6,1,5.2
-9%,COc1ccc(NC(=O)CC(C)CC(=O)NCc2ccccc2)c(OC)c1 (stereo not given),-25%,3,-7,-3,-3.2
-1%,Cc1ccc(C(=O)CSc2nnc3ccccn23)c(C)c1,0%[15.4 µM],0,12,-3,-0.4
10%,Cc1[nH]c(=O)c(S(=O)(=O)c2ccccc2)c(C)c1Cl,20%,10,-1,-1,-1.1
-11%,Cc1cc(Nc2ccccc2)nn1C(=O)c1ccc(Br)cc1,13%,8,17,-7,-2.1
13%,CC(=O)N=c1sccn1CC(O)c1ccccc1 (stereo not given),u,2,7,-8,-2.3
x,CC(=O)Nc1ccc(N/C(N)=N/c2nc(C)cc(C)n2)cc1,7%[15.4 µM],2,0,-9,-7.0
0%,CC(C)NC(=O)NNC(=O)c1nn(-c2ccc(F)cc2)ccc1=O,0%[15.4 µM],2,5,-7,-0.5
-12%,O=Cc1c(NCc2ccccc2Cl)c2ccccc2[nH]c1=O,0%[15.4 µM],17,-21,1,5.5
-2%,COc1ccc(-n2cnc3ccccc3c2=O)c([N+](=O)[O-])c1,u,-1,-1,-2,-2.9
3%,COc1cc(CO)ccc1OCc1ccc(Cl)nc1,-2%[15.4 µM],0,u,1,4.8
6%,O=C(c1ccccc1)N1CCN(c2ccccc2)CC1,9%,-4,-21,-3,-2.0
2%,Cc1c(CCOC(=O)CC23CC4CC(CC(C4)C2)C3)sc[n+]1Cc1ccccc1,-33%[inhibitor],-2,4,2,-4.4
-22%,COCCn1c(SCc2cccc([N+](=O)[O-])c2)nc2ccccc2c1=O,u,-16,-20,-5,6.7
9%,Cc1ccc(/C=N/NC(=O)c2ccoc2C)s1,-5%,4,8,-24,-3.0
-6%,CCCC(C)C(=O)Nc1nc(C)c(-c2csc(Nc3ccccc3OC)n2)s1 (stereo not given),x,-4,-10,-10,-0.5
-14%,NC(=O)CC(NC(=O)Cc1cccc2ccccc12)c1ccc(NCCc2ccc(F)cc2)c([N+](=O)[O-])c1 (stereo not given),-11%,3,x,-12,-6.8
3%,O=C(Nc1ccc2c(c1)CCC2)c1ccccc1,u,11,-2,-9,-3.2
13%,Cc1ccc(NS(=O)(=O)c2ccc3c(c2)CC(=O)N3)cc1F,-7%,-2,0,18,5.2
-1%&-3%,C/C(N)=C(/C#N)C(=O)CSc1nnc(Nc2cccc(C)c2C)s1,1%&2%,-8&-6,-3&-1,-7&-13,-1.5&-1.3
-1%,CC(=O)Nc1ccc(-c2sc(Nc3cccc4ccccc34)n[n+]2-c2ccccc2)cc1,11%,3,21,-11,-1.4
-14%,Cc1nnc(N2C(=O)C(=O)/C(=C(/O)c3ccc4c(c3)CC(C)O4)C2c2ccccc2F)s1 (stereo not given),20µM*,5,-11,4,0.7
3%,COc1ccc(C(=O)N=c2sc3c(C)ccc(OC)c3n2C)cc1OC,u,0,x,-1,-5.8
x,C[C@H](CO)N1C[C@H](C)[C@H](CN(C)S(=O)(=O)c2ccccc2C#N)OCc2cnnn2CCCC1=O,-17%,-15,5,4,-7.0
-20%,Cc1nn(C(C)(C)C)c(C)c1/C=N/OC(=O)Nc1ccc(Cl)cc1,10%,27,-6,1,-1.7
14%,O=C(NC(=S)NCCN1CCOCC1)c1ccccc1Cl,2%,-2,-4,-8,0.1
-37%,O=S(=O)(N1CCCCC1)N1CCN(c2cc(Cl)ccc2Cl)CC1,22%[15.4 µM],11,x,-3,6.7
-2%,Cc1ccccc1NC(=S)Nc1cccc2cnccc12,10%[15.4 µM],7,-1,14,6.1
2%,COc1ccccc1C(=O)Nc1ccnn1C1CCN(Cc2ccccc2OCCO)CC1,-22%,-1,-6,-35,-3.6
u,CC(C)(CNC(=O)c1ccc(Br)o1)N1CCOCC1,u,1,-12,-17,-2.1
9%,C=CCNC(=O)c1ccccc1NC(=O)c1ccccc1N(C)S(C)(=O)=O,-38%[inhibitor],0,4,-5,4.7
5%,COc1ccccc1-c1nnc(N(C)C(=O)C2CCCO2)s1 (stereo not given),14%,3,1,-8,-2.1
4%,CC1CCN(CCCNC(=O)c2cc3c(=O)n(C)c4ccccc4c3n2C)CC1,-3%,-16,0,-11,0.9
1%,FC(F)(F)c1ccccc1NC(=S)N1CCN(Cc2ccc3c(c2)OCO3)CC1,u,0,-3,6,-19
0%,CC(=O)c1cccc(CN2CCC(CO)(CCCc3ccccc3)CC2)c1,-13%,1,x,-9,3.3
-14%,CCC(C)NC(=O)c1ccc2c(Cl)c3c(nc2c1)CCC3 (stereo not given),-1%,16,-1,-8,-0.1
x,CC(=O)c1cccc(NC(=S)N2c3ccccc3CC2C)c1 (stereo not given),7%[15.4 µM],-5,-2,-10,5.5
5%,CCOc1cccc2c1OC1(C)CC2NC(=O)N1c1ccc(OC)cc1 (stereo not given),29%,-3,0,-6,-3.9
-6%,CC1CCCCC1NC(=O)COc1ccc(C#N)cc1 (stereo not given),-7%[15.4 µM],-11,-12,-27,-2.6
6%,COC(=O)c1cc(S(=O)(=O)NCCCc2ccco2)c[nH]1,11%,-9,x,-6,0.1
-9%,O=C(NCC1CCCO1)c1ccccc1OCc1ccc(Cl)cc1 (stereo not given),-41%[inhibitor],7,-8,-10,0.7
-4%,COc1cc(OC)cc(C(=O)Nc2ccccc2S(=O)(=O)N2CCCC2OC(C)=O)c1 (stereo not given),-37%[inhibitor][15.4 µM],-2,8,0,-1.7
11µM*,CN(Cc1ccccc1F)c1nc(-c2cccs2)nc2ccccc12,19%[15.4 µM],26,18,-6,-1.3

Other entries.
gsp antag,Structure,gsp agonist,Six1-Eya2 inh,CtBP-E1A inh,D2 potentiator,D2 ag
0%,COc1ccc(NC(=S)NNC(=O)C2CC2c2ccc(C)cc2)cc1 (stereo not given),-10%,-5,-3,-28,-9.7
6%,CCN(CC)C(=O)C1CCN(C(=O)c2oc3ccc(C)cc3c2C)CC1,-20%,0,1,9,-1.8
2%[15.4 µM],O=C(CCCN1C(=O)CCC1=O)Nc1ccc2c(c1)OCO2,-38%,5,17,-16,0.4
12%,CC(C)(CO)NCc1c(OCc2ccc(Cl)cc2)ccc2ccccc12,2%,-7,-22,-20,5.0
-2%,NC(=O)C1=C(N=C2CCCCC2)CCCC1,-33%[inhibitor],10,-21,-11,-3.2
-14%,CCCn1c(C(O)c2ccc3c(c2)OCO3)nc2ccccc21 (stereo not given),5%,-1,4,-1,-0.5
